Screening results (PubChem BioAssay)
CSC inhib: blocks cancer stem cells | cancer stem cell-like cells viability, luminescence | inhibition, % at 7.5 µM | 300,000 compounds, 1.1% hits | AID 2717;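 active = mean at 75% or more and at least half the replicates too; inconclusive = mean and replicates disagree; tested in HMLE shEcad cells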;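 note: 0% = median of negative and 100% = median of positive control wells; the first replicate is given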
UUG fidelity: modulators of start codon recognition fidelity in yeast; S. cerevisiae UUG-firefly luciferase reporter, luminescence/redox ratio; activity score, % at 18.7 µM; 350,000 compounds, 0.13% hits;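 active = replicate mean at a twofold rise or more, about +100% in these data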;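 note: firefly luciferase made from a UUG start codon reports start codon fidelity; reporter light over untreated wells divided by growth signal over untreated wells; some hits fall short of that in this replicate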
Rce1 inhib: yeast Ras-converting enzyme inhibition; Q03530; yeast membranes, quenched prenylated peptide cleavage fluorescence; calls only; 290,000 compounds, 0.27% hits;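 active = fall in fluorescence gain of 50% or more versus controls, with final raw signal at or below 3038400; inconclusive = same 50% fall but final raw signal above 3038400; inactive = fall in fluorescence gain under 50%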;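 note: plate controls were neutral control wells for no effect and wells lacking membranes for full effect; tested at 10 µM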
eIF4H FP inh: inhibitors of RNA binding by human eIF4H; Q15056; eIF4H fluorescence polarization binding assay; inhibition, % at 35 µM; 290,000 compounds, 0.94% hits; AID 2012;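 active = 50% or more with normal probe brightness, or confirmed in later tests; inconclusive = above 50% with abnormal brightness, or retests that disagree; inactive = below 50% or failed in later tests; about a fifth of its hits are not listed in these tables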;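 note: calls also rest on retests at 20 µM and on dose response follow-up; 0% = protein and probe with vehicle and 100% = probe without protein; strong numbers were not always called active; many hits fall short of the cut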
PABP FP inh: blocks human PABP binding to poly(A) RNA | P11940 | fluorescence polarization | inhibition, % at 35 µM | 290,000 compounds, 1% hits;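 active = 50% or more with normal probe brightness, or confirmed in later tests; inconclusive = above 50% with abnormal brightness, or retests that disagree; inactive = below 50% or failed in later tests; about a fifth of its hits are not listed in these tables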;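 note: calls also rest on retests at 20 µM and on dose response follow-up; controls were probe without protein and protein plus probe with vehicle; some compounds called inactive have numbers as strong as hits; many hits fall short of the cut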
Target sequence (P11940 whole entry, looked up): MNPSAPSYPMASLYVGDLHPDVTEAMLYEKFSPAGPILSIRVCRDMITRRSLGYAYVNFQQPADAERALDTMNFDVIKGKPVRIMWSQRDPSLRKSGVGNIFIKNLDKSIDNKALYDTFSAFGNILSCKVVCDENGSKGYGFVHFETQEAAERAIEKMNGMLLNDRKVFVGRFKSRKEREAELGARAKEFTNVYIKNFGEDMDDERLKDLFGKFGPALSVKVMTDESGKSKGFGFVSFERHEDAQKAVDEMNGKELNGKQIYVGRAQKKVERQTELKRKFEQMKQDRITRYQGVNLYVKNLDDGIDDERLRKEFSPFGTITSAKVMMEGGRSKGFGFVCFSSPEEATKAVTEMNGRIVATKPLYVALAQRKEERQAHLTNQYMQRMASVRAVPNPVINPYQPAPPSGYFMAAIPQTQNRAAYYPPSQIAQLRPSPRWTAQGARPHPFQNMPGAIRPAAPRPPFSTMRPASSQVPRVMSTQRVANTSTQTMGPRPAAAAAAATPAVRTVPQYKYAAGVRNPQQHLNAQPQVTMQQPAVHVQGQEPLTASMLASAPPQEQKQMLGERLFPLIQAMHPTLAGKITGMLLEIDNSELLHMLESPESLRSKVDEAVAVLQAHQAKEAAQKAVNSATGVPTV
HIV Env fusion: HIV envelope-mediated fusion inhibition; 360,000 compounds, 1.1% hits; AID 651610; inhibition, % at 12.3 µM; HeLa-JRFL Env/CEM21 cell fusion, luciferase;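 active = mean replicate inhibition score of at least 50 and every replicate individually at or above 50; inconclusive = only one of the two criteria met; inactive = mean below 50 and not all replicates reaching 50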;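 note: 0% = plate neutral controls and 100% = maraviroc near 300 nM; one replicate is shown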
MT1-MMP act inh: blocks activation of human MT1-MMP; GFP/RFP ratio change, % at 20 µM; AID 651647; HT1080 RFP-PRO-GFP cells, GFP/RFP ratio fluorescence, overnight; percent of plate control window, DMSO zero; 360,000 compounds, 0.061% hits;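 active = GFP/RFP ratio change of at least 30% with cell ATP level not reduced by more than half and red fluorescence within 50% of control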; note: strong numbers were not always called active
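Assay system: HT1080 RFP-PRO-GFP cells | Dosing: 20 µM single dose, 1% DMSO | Incubation: Cells overnight before dosing, compound overnight, 37 °C, 5% CO2 | Evaluation: GFP/RFP fluorescence ratio | Control set: DMSO-only wells and HT1080 RFP-L50D-GFP cell wells as references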
eIF4H FP inh retest: second read-out of eIF4H FP inh, no call of its own (marks repeat the call); inhibition, %; compound at 20 µM; confirmation average;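 mean of two retest wells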
PABP FP inh retest: further read-out of PABP FP inh, marked with its call; inhibition, %; compound at 20 µM; confirmation repeats;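 mean of two retest wells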
MT1-MMP act inh RFP: also measured in MT1-MMP act inh; calls as there; RFP signal change, %; measured here: RFP expression control read;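 0 = vehicle wells; hits needed this value within 50% of zero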
* = called active by the depositor; i = inactive; ? = inconclusive; / = no result given; & = joins results of further samples; [ ] = dose if it differs, or a comment.

SMILES	CSC inhib	UUG fidelity	Rce1 inhib	eIF4H FP inh	PABP FP inh	HIV Env fusion	MT1-MMP act inh	MT1-MMP act inh RFP	others
COC(=O)c1ccc(NC(=O)CN(C)S(=O)(=O)c2ccc(OC)c(C)c2)cc1	3	-9	i	3	8	-6	0	-2
O=[N+]([O-])c1ccc2nnn(O)c2c1	-3	-20	i	-1	5	-17	2	0
CCn1c(=NC(=O)CN2C(=O)CCC2=O)sc2c(OC)ccc(OC)c21	-9	-6	i	-3	3	-37	1	-1
Cc1cc(C)n(-c2nc3ccccc3nc2N2CCN(C(=O)c3ccccc3)CC2)n1	-7	25	i	0	-5	/	-2	-1
COc1ccc(C(=O)Nc2ccncc2)cc1OC	-7	14	i	0	-7	-40	9	0
O=C(COc1ccc(-c2nnco2)cc1)Nc1c(F)cccc1F	-11	-13	i	/	/	/	1	3
Cc1ccnc(N/N=C/c2ccccc2)n1	-4	-19	i	7	-4	-40	-4	-1
O=C(CN1CCN(Cc2ccccc2)CC1)NCc1ccc(Cl)cc1	1	-5	i	3	-4	-28	2	-1
COc1cc(-c2noc(C3CCCN(C(=O)c4c(F)cccc4F)C3)n2)cc(OC)c1OC (stereo not given)	-8	6	i	1	8	23	6	5
CNS(=O)(=O)c1cccc(C(=O)OC2CCCCC2=O)c1 (stereo not given)	-4	-23	/	-6	-3	/	-4	5
COc1ccc(C(=O)COC(=O)C(CCSC)NS(=O)(=O)c2ccc(Cl)cc2)cc1 (stereo not given)	-7	-8	i	-2	-12	/	-4	-7
O=C(Nc1ccccc1N1CCOCC1)c1cccc(F)c1	13	-6	i	-7	-3	9	-1	1
CN(C)c1ccc(C=Cc2ccnc3ccccc23)cc1N	/	-5	/	/	/	-11	8	-24
CC(=O)Oc1ccc(/C=N/NC(=O)CCSc2ccccc2)cc1	-14	-14	i	-7	-4	3	0	2
CCN1C(=O)/C(=C/c2cccs2)N(C)C1=S	1	95	i	43	10	-470	0	-1
CC(C)N(C(=O)NC(=O)Nc1ccc(S(=O)(=O)N2CCCC2)cc1)S(C)(=O)=O	-16	/	i	3	-34	8	-3	-1
COCCCn1c(SCC(=O)N(C)C)nnc1-c1ccccc1	-7	-4	i	-5	9	/	6	5
COc1ccccc1-c1nnc(NC(=O)C2CCCN2S(=O)(=O)c2cccs2)o1 (stereo not given)	/	-26	/	/	/	8	1	3
CSCCC(NC(=O)c1ccc(Cl)cc1Cl)C(=O)OC(C)C(=O)NCc1ccco1 (stereo not given)	10	2	i	/	/	-18	-1	2
CCOc1ccc(S(=O)(=O)Nc2nc3ccccc3nc2-n2ccc(=NC(=O)c3cccs3)cc2)cc1	14	/	i	?	1	8	-13	2
Cc1ccc([N+](=O)[O-])c2c1C(N1CC(C)OC(C)C1)C(C)(C)O2 (stereo not given)	-1	/	i	-6	3	18	-4	2
O=C(NC1C(=O)NNC1c1ccccc1)c1ccccc1 (stereo not given)	-12	/	i	-2	0	/	1	2
COc1cccc(C(=Cc2ccc([N+](=O)[O-])cc2)C(=O)O)c1	/	1	/	/	/	-14	-4	1
Cc1cc(C)c2c(=O)[nH]c(SCC(=O)N3CCCCC3)nc2n1	-5	-12	i	2	7	-21	3	2
Cc1ccc(CNS(=O)(=O)c2cn(C)cn2)cc1	4	-12	i	12	4	/	9	4
O=C(CNC1CCCCCC1)Nc1ccccc1N1CCCCC1	37	1	i	5	5	?	-9	-7
Cc1nc(C)c(C(=O)Nc2cccc(F)c2)s1	-10	-8	i	-2	3	-4	-1	-3
C#CCNC(=O)C1=C[C@H](c2csc3ccccc23)C[C@H](OCCCCO)O1	4	19&-19	i	-8	2	7[16.7 µM]	-8	-1
S=C(Nc1ccccc1)c1nc2ccccc2s1	6	/	i	5	6	-59	-3	1
Cc1cccc(NC(=O)Cn2cccc2)c1	-3	-11	i	10	7	/	11	1
COc1ccccc1Cc1c(-c2ccc(F)cc2)nc2ccc(Cl)cn12	/	-21	/	/	/	-142	-3	7
CC1(C)CC(=O)C2=C(C1)NC(=O)NC2c1ccc([N+](=O)[O-])cc1 (stereo not given)	-8	/	i	52	-5	12	-5	-2	eIF4H FP inh retest=-1;PABP FP inh retest=3
CCc1ccc(N(C(=O)c2csnn2)C(C(=O)NCc2ccccc2)c2ccco2)cc1 (stereo not given)	-12	-23	i	6	-10	-96	-6	-1
O=C(c1ccccc1Cl)N1CCC(c2nc3c(nnn3Cc3ccco3)c(=O)[nH]2)CC1	-9	-10	i	2	22	10	-4	0
CC(NC(=O)c1ccccc1Cl)C(=O)O (stereo not given)	-3	-10	i	8	14	/	-9	-1
O=C(COC(=O)CN1C(=O)C2CCCCC2C1=O)NCc1ccc(Cl)cc1Cl (stereo not given)	/	-10	/	/	/	-5	-2	3
O=c1oc(-c2ccccc2NS(=O)(=O)c2ccc(Cl)cc2)nc2ccccc12	37	/	/	3	20	11	-3	1
CCOc1cccc(C(=O)NC(=S)Nc2ccc(Cl)cc2C(=O)O)c1	8	/	i	-11	9	7	0	1
CCn1c(COc2ccc(OC)cc2)nnc1SCc1nc2ccccc2c(=O)[nH]1	-8	/	/	59	-12	/	/	/	eIF4H FP inh retest=27;PABP FP inh retest=33
CC(C)NC(=O)C1Cc2c(-c3ccccc3Oc3ccccc3)ccnc2O1 (stereo not given)	/	-38	/	/	/	11	-2	-2
CCCN1CCN(C(=O)Cn2c(=O)oc3cc(S(=O)(=O)NCc4ccccc4)ccc32)CC1	7	4	i	-7	-14	10	3	0
Cc1ccc(C(=O)CSc2nc(O)cc(=O)[nH]2)cc1C	-4	0	i	-4	-4	9	0	8
O=C(c1ccccc1)c1ccc(OCC(O)CN2CCCCC2)cc1 (stereo not given)	59	-3	i	5	4	-7	3	8
FC(F)(F)c1ccccc1N/N=C/c1cccnc1	4	-18	i	4	7	-26	1	0
COc1ccc(-c2nc(CSCC(=O)NC3CCCc4ccccc43)c(C)o2)cc1OC (stereo not given)	-6	/	i	7	0	-9	-2	-6
CC1Cc2ccccc2N1C(=O)Cn1cc([N+](=O)[O-])cn1 (stereo not given)	/	-9	i	3	-2	/	0	0
CC(=O)c1sc(-c2ccc(Cl)cc2)nc1C	-7	/	i	5	-1	-44	-1	2
Clc1ccc(-c2cnc3n2CCCCC3)cc1	-3	/	i	2	4	-8	-4	-5
S=c1[nH]nc(Cc2sc(-c3ccccc3)nc2-c2ccccc2)o1	11	-25	i	3	9	/	-1	-3
COc1cc(NC(=S)Nc2ccccn2)cc(OC)c1OC	-6	/	i	-4	-2	-26	-7	-5
COc1ccc(C(c2c(C)n(C)n(-c3ccccc3)c2=O)c2c(C)n(C)n(-c3ccccc3)c2=O)cc1OC	-9	-4	/	7	13	3	0	-6
O=[N+]([O-])c1cc2c(cc1CN1CCN(CCOCCO)CC1)OCO2	-14	-7	i	32	13	7	0	4
CN(C)C(CNC(=O)c1ccc(C(=O)c2ccccc2)cc1)c1ccccc1 (stereo not given)	-8	-12	i	4	-2	13	1	0
O=C(COC(=O)c1nc(Cl)ccc1Cl)Nc1ccccc1OC(F)F	-7	-18	i	-3	-3	10	-1	-2
CN(C)c1ccc(C2NCCS2)cc1 (stereo not given)	/	-17	i	-7	7	3	-5	0
CCS(=O)(=O)c1ccc(O)c(NC(=O)c2cc(OC)c(OC)c(OC)c2)c1	-1	-3	i	1	-1	13	19	-3
CN(CCCC1CCCC1)C(=O)c1cc(COc2c(F)cccc2F)on1	10	-11	i	10	-2	41	-3	1
O=C(COC(=O)c1cc(S(=O)(=O)N2CCOCC2)ccc1F)Nc1ccc2c(c1)OCO2	-5	-11	/	/	/	-2	-4	5
O=C(Cc1ccc([N+](=O)[O-])cc1)NCc1ccccc1Cl	8	/	i	-1	-1	24	-2	2
COc1cccc(C(=O)NNC(=O)c2sccc2-n2cccc2)c1	18	-12	i	1	-7	-3	4	3

(more compounds)
SMILES	CSC inhib	UUG fidelity	Rce1 inhib	eIF4H FP inh	PABP FP inh	HIV Env fusion	MT1-MMP act inh	MT1-MMP act inh RFP	others
O=C1CCCN1C(=O)CSc1ccc2ccccc2n1	/	8	/	/	/	0	0	2
O=C(NC(c1ccc(Cl)cc1)c1cnccn1)C1CCN(CCCOc2ccccc2)CC1 (stereo not given)	/	-5	/	/	/	-6	0	-1
Cc1ccc(N=C2C(=S)N(c3ccc(C)cc3)C(=N)N2/N=C/c2ccc(Cl)cc2)cc1	5	-32	i	-5	2	-237	5	-4
Fc1ccc(NC(=S)NCc2ccccn2)cc1	-12	-21	i	2	5	/	3	6
CC(C)(C)C(=O)CSc1ncnc2c1cnn2Cc1ccccc1	56	/	i	8	-7	0	-5	-12
Cc1cc(C)cc(OCC(=O)N(C)CC(=O)Nc2ccc(N3CCOCC3)cc2)c1	/	-12	/	/	/	-7	1	-2
O=C(c1ccc[nH]1)N1O[C@@H]2C=C[C@H]1C2	/	-14	/	/	/	-6	1	2
O=C(CCn1nnc2ccccc21)Nc1nnc(Cc2ccccc2)s1	-13	-18	i	-7	-7	24	5	-1
O=C(c1ccc(C(F)(F)F)cc1)C1CCCN(C(=O)CN2CCCC2=O)C1 (stereo not given)	-9	-20	i	2	-3	9	3	-1
COCCCNC(=O)CSc1nc2ccccc2c(=O)n1CCCC(=O)NCC1CCCO1 (stereo not given)	-8	-7	i	-14	-6	-23	5	5
CC(C)(C)c1ccc(C(=O)Nc2ccc(S(=O)(=O)Nc3cnc4ccccc4n3)cc2)cc1	14	-14	i	-5	-2	-145	4	-3
c1ccc(-c2c(-c3ccccc3)n(Cc3ccco3)c3ncnc(NCCCn4ccnc4)c23)cc1	133*	-4	i	5	0	/	-31	-32
Cc1ccc(C)c(N2CC(=O)N(c3cc(C)ccc3C)CC2=O)c1	-10	7	i	-3	0	-18	0	3
N/C(=N\OC(=O)COc1ccc([N+](=O)[O-])cc1)c1ccc(Br)cc1	/	/	i	-1	8	/	/	/
O=C(CCCOc1ccccc1)N1CCN(S(=O)(=O)c2ccc(Cl)cc2)CC1	-2	-11	i	/	/	/	3	-8
COn1c(-c2ccc(Cl)cc2)nc2ccc(Cl)cc21	5	-3	i	0	-8	-373	2	1
CNC(=O)c1ccc(NC(=O)CC23CC4CC(CC(C4)C2)C3)cc1	-13	-1	i	3	6	23	-2	-1
COc1ccc(CCC(=O)Nc2cc(Cl)ccc2OC)cc1	26	-16	/	-3	1	/	-1	-11
CCC(C(=O)NC1CCCCC1)N(CC1CCCO1)C(=O)CNS(=O)(=O)c1ccc(OC)cc1 (stereo not given)	/	9	i	0	-1	/	1	1
CN(CC(=O)Nc1ccccc1C(F)(F)F)C(=O)CCc1nc2sc3c(c2c(=O)[nH]1)CCCC3	-6	-21	i	-2	4	-2	3	5
CNC(=O)NC(=O)COC(=O)CCCOc1ccc(OC)cc1	-14	8	i	-3	-1	-11	4	9
COC(=O)c1sccc1NC(=S)N1CC(C)CC(C)C1 (stereo not given)	11	/	i	-10	-6	-23	-1	2
CCOc1ccc(NC(=O)COC(=O)c2cc([N+](=O)[O-])ccc2N2CCOCC2)cc1	6	/	i	/	/	/	2	-9
CCOC(=O)c1ccc(N=c2sc(C(=O)OC)cc(=O)n2Cc2ccc3c(c2)OCO3)cc1	/	-13	i	-1	-6	-99	-13	-21
